Screening data as filed in PubChem BioAssay.
eIF4H inh – inhibitors of RNA binding by human eIF4H. inhibition, % at 35 µM. Q15056. 290,000 compounds, 0.94% hits. AID 2012. eIF4H fluorescence polarization binding assay;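 active = 50% or more with normal probe brightness, or confirmed in later tests; about a fifth of its hits are not listed in these tables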;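 note: calls also rest on retests at 20 µM and on dose response follow-up; 0% = protein and probe with vehicle and 100% = probe without protein; strong numbers were not always called active; many hits fall short of the cut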
Rce1 inhib – blocks yeast Ras-converting enzyme | Q03530 | calls only | 290,000 compounds, 0.27% hits | yeast membranes, quenched prenylated peptide cleavage fluorescence | AID 2563;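 active = fall in fluorescence gain of 50% or more versus controls, with final raw signal at or below 3038400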;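 note: plate controls were neutral control wells for no effect and wells lacking membranes for full effect; tested at 10 µM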
Target sequence (Q03530 whole entry, looked up): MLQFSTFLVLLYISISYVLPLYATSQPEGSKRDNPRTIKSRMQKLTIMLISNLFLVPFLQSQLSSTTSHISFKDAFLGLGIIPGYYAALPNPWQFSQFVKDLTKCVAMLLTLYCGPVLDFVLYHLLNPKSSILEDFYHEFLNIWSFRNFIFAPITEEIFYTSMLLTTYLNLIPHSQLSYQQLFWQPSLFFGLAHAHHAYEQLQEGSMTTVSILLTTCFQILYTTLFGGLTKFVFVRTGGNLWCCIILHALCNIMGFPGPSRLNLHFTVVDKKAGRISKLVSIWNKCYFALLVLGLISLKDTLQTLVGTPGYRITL
HIV Env fusion – HIV envelope-mediated fusion inhibition; HeLa-JRFL Env/CEM21 cell fusion, luciferase; inhibition, % at 12.3 µM; 360,000 compounds, 1.1% hits;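 active = mean replicate inhibition score of at least 50 and every replicate individually at or above 50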;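 note: 0% = plate neutral controls and 100% = maraviroc near 300 nM; one replicate is shown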
Yeast UUG start – modulators of start codon recognition fidelity in yeast. S. cerevisiae UUG-firefly luciferase reporter, luminescence/redox ratio. AID 602363. activity score, % at 18.7 µM. 350,000 compounds, 0.13% hits;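 active = replicate mean at a twofold rise or more, about +100% in these data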;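 note: firefly luciferase made from a UUG start codon reports start codon fidelity; reporter light over untreated wells divided by growth signal over untreated wells; some hits fall short of that in this replicate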
MT1-MMP act inh – inhibitors of human MT1-MMP activation. AID 651647. HT1080 RFP-PRO-GFP cells, GFP/RFP ratio fluorescence, overnight; percent of plate control window, DMSO zero. 360,000 compounds, 0.061% hits. GFP/RFP ratio change, % at 20 µM;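 active = GFP/RFP ratio change of at least 30% with cell ATP level not reduced by more than half and red fluorescence within 50% of control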; note: strong numbers were not always called active
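system = RFP-PRO-GFP reporter HT1080 cells | dosing = 20 µM single dose, 1% DMSO | timing = overnight cell settling, then overnight compound exposure, 37 °C, 5% CO2 | read-out basis = GFP/RFP fluorescence ratio | controls = DMSO and RFP-L50D-GFP cell wells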
CSC inhib – cancer stem cell inhibition | cancer stem cell-like cells viability, luminescence | inhibition, % at 7.5 µM | 300,000 compounds, 1.1% hits;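 active = mean at 75% or more and at least half the replicates too; tested in HMLE shEcad cells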;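 note: 0% = median of negative and 100% = median of positive control wells; the first replicate is given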
PABP FP inh – blocks human PABP binding to poly(A) RNA | P11940 | fluorescence polarization | inhibition, % at 35 µM | 290,000 compounds, 1% hits;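 active = 50% or more with normal probe brightness, or confirmed in later tests; about a fifth of its hits are not listed in these tables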;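 note: calls also rest on retests at 20 µM and on dose response follow-up; controls were probe without protein and protein plus probe with vehicle; some compounds called inactive have numbers as strong as hits; many hits fall short of the cut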
Target sequence (P11940 whole entry, looked up): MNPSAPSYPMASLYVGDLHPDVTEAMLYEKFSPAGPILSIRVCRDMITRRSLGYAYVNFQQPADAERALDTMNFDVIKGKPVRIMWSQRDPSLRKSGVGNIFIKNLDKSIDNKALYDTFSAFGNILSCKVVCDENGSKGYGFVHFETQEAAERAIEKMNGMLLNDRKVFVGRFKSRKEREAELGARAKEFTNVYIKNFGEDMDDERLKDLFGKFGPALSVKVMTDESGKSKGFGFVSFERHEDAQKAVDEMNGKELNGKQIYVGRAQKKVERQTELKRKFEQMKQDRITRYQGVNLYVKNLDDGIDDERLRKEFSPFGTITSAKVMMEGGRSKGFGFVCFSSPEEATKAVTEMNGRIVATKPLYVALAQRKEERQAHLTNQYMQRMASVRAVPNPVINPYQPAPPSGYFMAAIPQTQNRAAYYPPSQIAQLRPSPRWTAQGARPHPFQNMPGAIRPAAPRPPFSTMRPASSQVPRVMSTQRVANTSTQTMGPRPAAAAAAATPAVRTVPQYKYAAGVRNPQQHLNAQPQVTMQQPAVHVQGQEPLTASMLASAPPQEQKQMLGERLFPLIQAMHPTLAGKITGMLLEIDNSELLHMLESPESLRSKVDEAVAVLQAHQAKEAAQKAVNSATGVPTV
eIF4H inh retest – also measured in eIF4H inh; calls as there; inhibition, %; compound at 20 µM; confirmation average;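 mean of two retest wells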
PABP FP inh retest – further read-out of PABP FP inh, marked with its call; inhibition, %; compound at 20 µM; confirmation repeats;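 mean of two retest wells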
MT1-MMP act inh RFP – further read-out of MT1-MMP act inh, marked with its call; RFP signal change, %; measured here: RFP expression control read;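 0 = vehicle wells; hits needed this value within 50% of zero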
The depositor's hits bear a star; i = inactive; x = no result given; + = active, no number; & = joins results of further samples; [ ] = remark or other dose.

SMILES | eIF4H inh | Rce1 inhib | HIV Env fusion | Yeast UUG start | MT1-MMP act inh | MT1-MMP act inh RFP | CSC inhib | PABP FP inh | others
O=C1CCCC(O)=C1N=Nc1c(Cl)cc(Cl)cc1Cl | 5 | i | -6 | x | 56 | 52 | -18 | -7
N/C(COc1ccc(F)cc1)=N\NC(=O)c1cccnc1Oc1ccccc1 | -5 | i | -26 | -10 | 2 | 11 | 1 | -8
Cc1ccc(C(=O)N2CC3(C(C)C)CN(C(=O)c4ccc(C)cc4)CC(C(C)C)(C2)C3=O)cc1 | 0 | i | x | -10&1 | -5 | -10 | 0 | 11
O=C1CCC(C(=O)Nc2cccc3ccccc23)N1 (stereo unspecified) | 0 | i | x | 7 | -3 | 0 | -18 | 1
COC(=O)C1=C(C)NC(=O)NC1c1ccc(-c2ccc(Cl)cc2)o1 (stereo unspecified) | -5 | i | 23 | x | -2 | -6 | -3 | -2
Cn1c(=O)[nH]c(=O)c2c1nc(N1CCCCCC1)n2CCOc1ccccc1 | 1 | i | -3 | -6 | -1 | -1 | 5 | -10
COC(=O)c1[nH]c2cc(OC)ccc2c1NC(=O)CN1CCN(c2cccc(C)c2)C(C)C1 (stereo unspecified) | -8 | i | -7 | 7 | 0 | -11 | x | 3
C=CCn1c(SCC(=O)Nc2c(C)n(C)n(-c3ccccc3)c2=O)nnc1-c1cccnc1 | x | x | 9 | -16 | 4 | 6 | -13 | x
CC1Sc2ccc(S(=O)(=O)N3CCC(C(=O)Nc4ccc(Cl)cc4)CC3)cc2NC1=O (stereo unspecified) | 48 | i | 3 | -9 | -13 | -27 | -14 | 24
Cn1c2ccccc2c(=O)c2c(=O)n(Cc3ccco3)c(COc3ccccc3)nc21 | 76 | i | -63 | x | x | x | 10 | 1.9* | eIF4H inh retest=37;PABP FP inh retest=54*
COc1ccc(C2=Nc3ccccc3OC2)cc1 | 5 | i | -107 | -29 | -10 | -2 | 20 | 8
CCCCNS(=O)(=O)c1ccc(NC(=O)c2c(-c3ccccc3Cl)noc2C)cc1 | 0 | i | x | 5 | 7 | -4 | 6 | 6
O=C(NN1C(=O)NC2(CCCCC2)C1=O)c1ccc(Cl)c(Cl)c1 | x | x | -1 | -2 | 5 | 4 | -24 | x
O=C(N1CCOCC1)N1CCN(C(c2ccccc2)c2ccccc2)CC1 | 0 | i | -1 | -14 | 2 | -2 | -1 | 0
O=S(=O)(/N=C(/c1ccccc1Cl)N1CCOCC1)c1ccccc1 | 1 | i | x | -4 | 2 | 3 | -13 | -3
CCCCC1Cc2[nH]c(=S)[nH]c(=O)c2C(c2ccc(Cl)cc2)O1 (stereo unspecified) | x | x | -52 | -12 | 0 | -1 | x | x
CCC(C)OC(=O)C1=C(C)NC(=O)CC1c1ccccc1OC (stereo unspecified) | 0 | i | x | 18 | -1 | -4 | -6 | -8
Cc1onc(-c2c(F)cccc2Cl)c1C(=O)NNC(=O)C1CCN(Cc2cccc(F)c2)CC1 | 0 | i | -1 | -4 | 5 | 5 | -5 | 2
Cc1nnc(N/N=C/C(C)c2ccccc2)[nH]c1=O (stereo unspecified) | -1 | i | 11 | x | 3 | 1 | 5 | 4
O=C(Nc1ccc(F)cc1)Nc1nnc(Cc2ccccc2F)s1 | -10 | i | 18 | -4 | 3 | -12 | x | -6
CC(C)C(NC(=O)c1ccco1)C(=O)NCC(c1ccco1)N1CCCCC1 (stereo unspecified) | -5 | + | -87 | -6 | -1 | 4 | -8 | 3
CS(=O)(=O)N1N=C(c2cccs2)CC1c1ccccc1 (stereo unspecified) | 16 | i | 1 | -9 | -5 | 1 | x | -10
CCCOc1ccc(C2C(C(=O)/C=C/c3ccco3)=C(O)C(=O)N2CCN2CCOCC2)cc1OC (stereo unspecified) | 54 | i | 2 | x | -7 | 5 | -11 | -6 | eIF4H inh retest=-14;PABP FP inh retest=1
O=C(Nc1cccc(F)c1)NC1(C(=O)N2CCOCC2)CCCCC1 | 8 | i | 1 | x | -2 | -1 | -14 | 4
CC1(C(=O)NCCc2c[nH]c3ccccc23)C=CC2(CCCCC2)N1C(=O)c1ccccc1 (stereo unspecified) | 10 | i | x | 1 | -7 | -4 | 13 | 4
CN(Cc1cccc2ccccc12)C(=O)c1cc(COc2c(F)cccc2F)on1 | -5 | i | 12 | -13 | 0 | 1 | 5 | -1
O=C(CCn1cccc1)Nc1ccc(F)cc1 | -4 | i | -116 | -15 | -1 | 2 | -7 | 9
CCOC(=O)c1cc(S(=O)(=O)NCc2ccco2)cn1C | -11 | i | -2 | -5 | -1 | 2 | -11 | 2
COc1ccccc1C(NC(=O)C1CCN(CCOc2ccc3ccccc3c2)CC1)c1ccccn1 (stereo unspecified) | x | x | 1 | -11 | 3 | -1 | x | x
O=C(O)C1=C[C@@H](c2ccc(Br)cc2)C[C@@H](OCc2ccc(CO)cc2)O1 | 12 | i | -12[16.7 µM] | -7&-24 | -3 | 0 | 18 | 1
O=C(CSc1nc2ncc(Br)cc2[nH]1)Nc1ccc2c(c1)OCO2 | 8 | i | x | -8 | 4 | 1 | x | 10
CCCCC1C(=O)CC[C@H]2[C@@H]1CC(=O)[C@@H]2C/C=C\CCCC(=O)O (stereo partly specified) | 2 | i | x | -5 | 1 | -2 | -4 | -6
Cc1cccc(Cl)c1NC(=S)N1CCN(c2ccc([N+](=O)[O-])cn2)CC1 | -2 | i | -8 | x | 6 | -3 | -8 | 5
CC(CCCC(C)(C)O)NCc1cn[nH]c1-c1ccc2c(c1)OCO2 (stereo unspecified) | -2 | i | -4 | -18 | 1 | 5 | -6 | 1
Cc1ccc2occ(C3NC(C(=O)O)CS3)c(=O)c2c1 (stereo unspecified) | -6 | i | 10 | x | 2 | 3 | -6 | 4
CC(C)C(=O)NCCSc1c[nH]c2ccccc12 | -9 | i | 22 | -19 | 3 | 4 | 3 | -9
CCOC(=O)CC(=O)Nc1nc2ccccc2s1 | -6 | x | x | -8 | 1 | 1 | -8 | 4
Cc1cc([N+](=O)[O-])nn1CC(=O)N1N=C(C(F)F)CC1(O)C(F)F (stereo unspecified) | 10 | i | -2 | -1 | -2 | 1 | -9 | 4
O=C(NCCCO)C(=O)NCC1OCCCN1S(=O)(=O)c1cccs1 (stereo unspecified) | -1 | i | 9 | -2 | -8 | 0 | -2 | 9
CCOC(=O)c1c(-c2ccccc2Cl)cn2ccccc12 | 1 | i | -60 | -4 | -4 | 1 | 11 | 29

Three entries already listed, ordered by molar mass, largest number first:
SMILES | eIF4H inh | Rce1 inhib | HIV Env fusion | Yeast UUG start | MT1-MMP act inh | MT1-MMP act inh RFP | CSC inhib | PABP FP inh | others
Cc1cc([N+](=O)[O-])nn1CC(=O)N1N=C(C(F)F)CC1(O)C(F)F (stereo unspecified) | 10 | i | -2 | -1 | -2 | 1 | -9 | 4
CC(CCCC(C)(C)O)NCc1cn[nH]c1-c1ccc2c(c1)OCO2 (stereo unspecified) | -2 | i | -4 | -18 | 1 | 5 | -6 | 1
O=C(CCn1cccc1)Nc1ccc(F)cc1 | -4 | i | -116 | -15 | -1 | 2 | -7 | 9

Returning to the listing with the six entries that preceded the break.
SMILES | eIF4H inh | Rce1 inhib | HIV Env fusion | Yeast UUG start | MT1-MMP act inh | MT1-MMP act inh RFP | CSC inhib | PABP FP inh | others
Cc1ccc2occ(C3NC(C(=O)O)CS3)c(=O)c2c1 (stereo unspecified) | -6 | i | 10 | x | 2 | 3 | -6 | 4
CC(C)C(=O)NCCSc1c[nH]c2ccccc12 | -9 | i | 22 | -19 | 3 | 4 | 3 | -9
CCOC(=O)CC(=O)Nc1nc2ccccc2s1 | -6 | x | x | -8 | 1 | 1 | -8 | 4
Cc1cc([N+](=O)[O-])nn1CC(=O)N1N=C(C(F)F)CC1(O)C(F)F (stereo unspecified) | 10 | i | -2 | -1 | -2 | 1 | -9 | 4
O=C(NCCCO)C(=O)NCC1OCCCN1S(=O)(=O)c1cccs1 (stereo unspecified) | -1 | i | 9 | -2 | -8 | 0 | -2 | 9
CCOC(=O)c1c(-c2ccccc2Cl)cn2ccccc12 | 1 | i | -60 | -4 | -4 | 1 | 11 | 29
CCCCNCc1cc(Cl)c(OCCC)c(OCC)c1 | -3 | i | 32 | 2 | -2 | -2 | -4 | -4
Cn1c(SCC(=O)N2CCCc3ccccc32)nnc1-c1c[nH]c2ccccc12 | -10 | i | x | 3 | 4 | 1 | -9 | -2
CCN(CC)c1ccc(NC(=O)CCCCCN2C(=O)c3ccccc3C2=O)cc1 | -13 | i | 11 | x | -2 | -2 | -3 | -4
O=C(COC(=O)c1ccc(S(=O)(=O)N2CCCC2)cc1)NCc1ccc(F)cc1 | -1 | i | -11 | -9 | 3 | 4 | 1 | 1
CCSCC1COC(c2cccn2Cc2ccc(C)cc2)=N1 (stereo unspecified) | 12 | i | -65 | -27 | -7 | -4 | 8 | -6
COc1ccc(Br)c(Cn2c(C)c(C(=O)NCc3cccc([N+](=O)[O-])c3)sc2=O)c1 | x | x | 7 | -9 | 6 | -6 | x | x
CCOC(=O)Cc1csc(NC(=O)c2ccc(F)cc2)n1 | -3 | i | -3 | -11 | -5 | -13 | -8 | 6
CC(C)c1ccc(/C=N/NC(=O)CCNC(=O)c2ccccc2)cc1 | 9 | x | -4 | -8 | 2 | 0 | -10 | 11
CCCOC(=O)Nc1sc2c(c1C(=O)OCC)CCC2 | -6 | i | x | -15 | 4 | -1 | -2 | -4
COc1ccc(C(=O)OCC(=O)NCC2CCCCC2)c(OC)c1 | x | x | 21 | 14 | -1 | -1 | x | x
COc1ccccc1C(=O)COC(=O)c1ccc(-n2cnnn2)cc1 | x | i | -4 | -7 | -2 | 2 | -14 | x
CC(C)(C)c1cc(C(c2cccnc2)N2CCN(CCO)CC2)cc(C(C)(C)C)c1O (stereo unspecified) | 6 | i | x | -49 | -9 | -6 | 196* | -3
CCC1CCCCN1C(=O)COC(=O)c1ccc(Br)o1 (stereo unspecified) | x | x | 2 | 2 | 1 | 0 | -17 | x
CCOC(=O)C1=C(C)NC(=S)NC1c1ccsc1 (stereo unspecified) | 13 | i | -44 | x | 2 | 4 | -12 | -4
CC(OC(=O)CCc1nc(=O)c2ccccc2n1C)C(=O)NCc1ccc2c(c1)OCO2 (stereo unspecified) | 2 | i | 5 | x | 0 | 4 | -8 | 4
CC1=CC(c2ccc(Cl)cc2)n2nc(NS(=O)(=O)c3ccc(C)cc3)nc2N1 (stereo unspecified) | -4 | i | -73 | -26 | 3 | 2 | -6 | 2
COc1ccc(CC(=O)Nc2cccc(S(=O)(=O)N3CCCC3)c2)cc1OC | x | x | x | 1 | 9 | -26 | 12 | x
NNC(=O)c1ccc(CSc2cccc3cccnc23)cc1 | -3 | i | 0 | -20 | 5 | 5 | -6 | 4
O=C1C2ON(c3ccccc3)C(c3cccnc3)C2C(=O)N1c1ccccc1 (stereo unspecified) | 3 | i | -8 | 9 | 1 | 0 | -10 | 0
COc1cccc2cc(C(=O)NCc3ccc(C)cc3)c(=O)oc12 | 2 | i | x | -2 | -3 | 1 | -3 | -2

A run of entries of the results above:
SMILES | eIF4H inh | Rce1 inhib | HIV Env fusion | Yeast UUG start | MT1-MMP act inh | MT1-MMP act inh RFP | CSC inhib | PABP FP inh | others
CC1=CC(c2ccc(Cl)cc2)n2nc(NS(=O)(=O)c3ccc(C)cc3)nc2N1 (stereo unspecified) | -4 | i | -73 | -26 | 3 | 2 | -6 | 2
COc1ccc(CC(=O)Nc2cccc(S(=O)(=O)N3CCCC3)c2)cc1OC | x | x | x | 1 | 9 | -26 | 12 | x
